# From PubChem
# CBX7 inh: CBX7 chromodomain binding inhibitors, primary screen, biochemical, AlphaScreen; AlphaScreen His6-CBX7 / biotin-H3K27me3 peptide binding; active compounds read low; normalised signal (fraction of DMSO) (test concentration not listed); 66,000 tested, 1.1% active; in the data active = normalised signal below about 0.5;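 also: 100 nL library stock added to about 20 µL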
# Target sequence (O95931 whole entry, looked up): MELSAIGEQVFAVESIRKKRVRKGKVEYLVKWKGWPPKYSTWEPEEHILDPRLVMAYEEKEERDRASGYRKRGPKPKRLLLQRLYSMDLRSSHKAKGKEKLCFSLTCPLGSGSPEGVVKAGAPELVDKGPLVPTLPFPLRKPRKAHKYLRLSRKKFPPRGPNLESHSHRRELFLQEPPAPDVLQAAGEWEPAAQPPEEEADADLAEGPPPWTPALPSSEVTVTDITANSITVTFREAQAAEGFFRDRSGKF
# CBX7 inh z-score: also measured in CBX7 inh; calls as there; z-score; measured here: z-score of CBX7 signal; some inactives read as strong as hits; reference of the scale not given here;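 same signal on another scale; lower means less binding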
# An asterisk follows results filed as active. A portion of the library (hit frequency here may not be typical).
# Every second line gives: CBX7 inh, CBX7 inh z-score
CCCC1=Nc2cc(C(=O)NCCc3ccc(Cl)cc3)ccc2Sc2ccccc21
    0.94, -0.858
CCOC(=O)C1(c2ccccc2)CCN(CC(=O)Nc2cccc3ccccc23)CC1
    1.05, 0.063
Cc1[nH]c2ccc(OC(F)(F)F)cc2c1CCNCc1ccc(Cl)cc1
    0.905, -2.81
O=C1CN=C(c2ccccc2)c2ccccc2N1Cc1cccc(Cl)c1
    0.954, -1.27
O=C(Cc1ccc(-n2c(=O)[nH]c3ccsc3c2=O)cc1)N1CCN(Cc2ccc3c(c2)OCO3)CC1
    1.13, 0.591
CCC(=O)N1N=C2C3CCN(CC3)C2C1c1ccc(Cl)cc1 (stereo not drawn)
    1.04, 1.67
CCn1c(C(=O)N2CCC(C(=O)N3CCC4(CC3)OCCO4)CC2)cc2sccc21
    1.04, 0.167
CCCCCCCCCCn1c(C)c(C(=O)OCC)c2cc(O)ccc21
    1.12, 1.47
COc1ccc(-n2c(/C=C/c3ccc(O)c(OC)c3)nc3ccccc3c2=O)cc1
    1.32, 1.36
Cc1cccc(NC(=O)CN2C(=O)CN=C(c3ccccc3)c3cc(Cl)ccc32)c1C
    0.955, -2.18

# Single records, from the list above. Values in the order: CBX7 inh, CBX7 inh z-score
# Results for CCCC1=Nc2cc(C(=O)NCCc3ccc(Cl)cc3)ccc2Sc2ccccc21 = 0.94, -0.858
# Results for CCC(=O)N1N=C2C3CCN(CC3)C2C1c1ccc(Cl)cc1 (stereo not drawn) = 1.04, 1.67
# Results for COc1ccc(-n2c(/C=C/c3ccc(O)c(OC)c3)nc3ccccc3c2=O)cc1 = 1.32, 1.36

# The listing continues:
# Every second line gives: CBX7 inh, CBX7 inh z-score
CCCCOc1ccc(C2SCC(=O)Nc3c2c(=O)[nH]n3C(C)C)cc1 (stereo not drawn)
    0.984, -0.38
COCCNC(=O)CN1C(=O)C(C)N=C(c2ccccc2)c2cc(Cl)ccc21 (stereo not drawn)
    0.932, -1.9
C(#CCN1CCOCC1)COCC#Cc1ccccc1
    0.872, -2.53
Cc1ccc(NC(=O)CN2C(=O)CN=C(c3ccccc3)c3ccccc32)cc1
    0.96, -1.11
Cc1cccc(NC(=O)CN2C(=O)C(C)N=C(c3ccccc3F)c3cc(Cl)ccc32)c1C (stereo not drawn)
    0.727, -4.93
CC(C)CCNC(=O)CN1C(=O)C(CC(C)C)N=C(c2ccccc2)c2ccccc21 (stereo not drawn)
    1.15, 2.96
COc1ccc(NC(=O)CN2C(=O)CN=C(c3ccccc3Cl)c3cc(Cl)ccc32)cc1OC
    0.872, -3.58
CCOC(=O)c1c(C)nc2c(C3CCCN3C)cccn12 (stereo not drawn)
    1.11, 1.22
Cc1ccc(CN2C(=O)CN=C(c3ccccc3)c3cc(Cl)ccc32)cc1
    0.94, -1.66
CN1CC=C(c2noc(CCC(=O)Nc3ccc(F)cc3Cl)n2)CC1
    1.04, 1.77

# Carrying on.
# Every second line gives: CBX7 inh, CBX7 inh z-score
Clc1cccc(CNCCc2c[nH]c3ccccc23)c1
    0.964, -1.17
Cc1ccc(S(=O)(=O)N2CCCCC2c2cccnc2)cc1 (stereo not drawn)
    1.17, 1.6
O=C1c2ccccc2C(=O)N1Cc1nc2ccccc2c(=O)n1-c1nccs1
    1.14, 1.46
Fc1cc(C2NCc3ccccc3-n3cccc32)cc(F)c1F (stereo not drawn)
    0.929, -2.55
CC(=O)N1CC(=O)Nc2ccc(C)cc2C1c1ccc(F)cc1 (stereo not drawn)
    1.03, 0.423
Cc1c(Cl)cccc1NC(=O)CN1C(=O)CN=C(c2ccccc2)c2cc(Cl)ccc21
    1.1, 0.73
CN1CCC(O)(c2ccccc2)C2CCCCC21 (stereo not drawn)
    1.63, 1.28
COc1ccc2[nH]c(C)c(CCNCc3cccc(OC)c3OC)c2c1
    0.615, -7
COc1cccc(/C=C/c2nc3ccccc3c(=O)n2-c2ccc(F)c(Cl)c2)c1
    1.11, 1.79
Cc1ccccc1Cc1c(C)nc2c(C(=O)N3CCC4(CC3)OCCO4)cnn2c1C
    1.1, 1.04

# Continuation:
# Every second line gives: CBX7 inh, CBX7 inh z-score
CCN1CCN(C(=O)Cc2cn(C)c3ccccc23)CC1
    0.982, -0.618
CCOC(=O)c1c(C)n(C2CCCCC2)c2ccc(O)cc12
    0.826, -2.08
CC1N=C(c2ccccc2)c2cc(Cl)ccc2N(CC(=O)Nc2cccc(C(F)(F)F)c2)C1=O (stereo not drawn)
    0.855, -2.69
CCCCCc1cc(O)c(C2=CCN(C)CC2)c(O)c1
    0.948, -1.03
COc1ccc2[nH]c(C)c(CCNCc3cccc(C(F)(F)F)c3)c2c1
    0.201*, -0.795*
COc1ccc2[nH]c(C)c(CCNCc3cccc4ccccc34)c2c1
    0.588, -6.33
CCOc1ccc(-c2cc(C(=O)N3CCC4(CC3)OCCO4)c3ccccc3n2)cc1
    1.04, 0.886
CN1CCCCC1c1ccc(-c2cccnc2)nc1 (stereo not drawn)
    1.04, 0.478
COCCCn1c(-c2ccc(OC)cc2)cc(C(=O)NC2CCCCC2)c1C
    0.994, -0.181
COc1ccc(-c2nc3ccccc3c(=O)n2-c2cc(C)ccn2)cc1
    0.983, -0.474

# The list goes on:
# Every second line gives: CBX7 inh, CBX7 inh z-score
Cc1[nH]nc2c1C(c1ccc(Cl)cc1)SCC(=O)N2 (stereo not drawn)
    1.01, 0.214
COc1cccc(/C=C/c2nc3ccccc3c(=O)n2-c2ccc(C)cc2)c1O
    0.974, -0.401
CC(=O)N1CC(=O)Nc2ccc(F)cc2C1c1ccccc1 (stereo not drawn)
    0.976, -0.605
O=c1c2ccccc2nc(/C=C/c2ccc3c(c2)OCO3)n1-c1ccc(F)c(Cl)c1
    1.13, 2.1
Cc1ccc(CNC(=O)CN2CC(c3ccccc3)CC2=O)cc1 (stereo not drawn)
    1.02, 0.466
CCC(C)NC(=O)CN1C(=O)C(C)N=C(c2ccccc2)c2ccccc21 (stereo not drawn)
    1.1, 0.762
COc1ccc(C2SCC(=O)Nc3c2c(=O)[nH]n3C(C)C)cc1OC (stereo not drawn)
    1.09, 2.02
COc1ccc(-n2c(/C=C/c3ccccc3)nc3ccccc3c2=O)cc1OC
    0.845, -1.78
O=c1c2ccccc2nc(/C=C/c2cccc(F)c2)n1-c1cccc(F)c1
    1.02, 1.08
CCN(CC)CC(=O)Nc1ccc(Br)cc1C(=O)c1ccccc1
    1.02, 0.53

# Reformatted as labelled records: two of the compounds above
COc1ccc(-n2c(/C=C/c3ccccc3)nc3ccccc3c2=O)cc1OC
- CBX7 inh: 0.845
- CBX7 inh z-score: -1.78
O=c1c2ccccc2nc(/C=C/c2cccc(F)c2)n1-c1cccc(F)c1
- CBX7 inh: 1.02
- CBX7 inh z-score: 1.08

# Further entries
# Every second line gives: CBX7 inh, CBX7 inh z-score
CC(=O)OC1(c2ccccc2)CCN(C2CCCCC2)CC1C (stereo not drawn)
    1.06, 1.64
Cc1ccc(S(=O)(=O)NCCC(=O)Nc2ccc(Br)cc2C(=O)c2ccccc2)cc1
    0.944, -1.1
COc1cccc(/C=C/c2nc3ccccc3c(=O)n2-c2ccc(F)cc2)c1OC
    1.05, 2.5
COc1ccc(OC)c(C2=NCC(=O)Nc3c2oc2ccc(Cl)cc32)c1
    0.906, -4.16
CCOC(=O)C1(c2ccccc2)CCN(CCC(=O)Nc2ccc(C)c(Br)c2)CC1
    0.827, -0.61
c1ccc2c(c1)CNC(c1ccc3c(c1)OCO3)c1cccn1-2 (stereo not drawn)
    0.993, -0.388
O=C(CN1C(=O)CN=C(c2ccccc2)c2cc(Br)ccc21)Nc1cccc(F)c1
    0.936, -1.16
COc1ccc(CNCCc2c(C)[nH]c3ccc(OC(F)(F)F)cc23)c(OC)c1
    0.9, -2.96
Cc1ccc(-n2c(/C=C/c3cccc(F)c3)nc3ccccc3c2=O)cc1F
    1.03, 1.53
Cc1ccc2c(c1)C(c1ccccc1)=NC(O)C(=O)N2 (stereo not drawn)
    0.956, -1.33

# Sorted by molar mass (high to low): some entries from above
# Every second line gives: CBX7 inh, CBX7 inh z-score
O=C(Cc1ccc(-n2c(=O)[nH]c3ccsc3c2=O)cc1)N1CCN(Cc2ccc3c(c2)OCO3)CC1
    1.13, 0.591
O=C(CN1C(=O)CN=C(c2ccccc2)c2cc(Br)ccc21)Nc1cccc(F)c1
    0.936, -1.16
CC(=O)N1CC(=O)Nc2ccc(F)cc2C1c1ccccc1 (stereo not drawn)
    0.976, -0.605

# The results go on:
# Every second line gives: CBX7 inh, CBX7 inh z-score
COc1cc2c(cc1OC)C(C(=O)N1CCN(c3cccc(Cl)c3)CC1)C1CCCCN1C2=O (stereo not drawn)
    0.946, -1.63
COc1cc(/C=C/c2nc3ccccc3c(=O)n2-c2cccc(C)c2)ccc1O
    1.04, 1.03
N#Cc1cnn2c(C(F)(F)F)cc(-c3ccc(Br)cc3)nc12
    0.982, -0.326
COc1ccc(-n2c(/C=C/c3ccc(F)cc3)nc3ccccc3c2=O)cc1Cl
    0.985, -0.412
CCOC(=O)C1(c2ccccc2)CCN(CCC(=O)Nc2cc(Cl)ccc2OC)CC1
    0.963, -0.172
CC1N=C(c2ccccc2)c2ccccc2N(CC(=O)Nc2ccc(C(C)C)cc2)C1=O (stereo not drawn)
    1.02, 0.132
CCOc1cc2c(cc1OCC)-n1cccc1C(c1cccc(F)c1)NC2 (stereo not drawn)
    0.962, -0.84
CCc1ccc(NC(=O)CN2CC(c3ccccc3)CC2=O)cc1 (stereo not drawn)
    0.941, -1.38
CC1N=C(c2ccccc2)c2ccccc2N(Cc2cccc(Cl)c2)C1=O (stereo not drawn)
    0.974, -0.638
Cc1cccc(OCC(O)CNC2CN3CCC2CC3)c1 (stereo not drawn)
    1.01, 0.408

# Next entries follow.
# Every second line gives: CBX7 inh, CBX7 inh z-score
NC(=O)C1CCN(CC(=O)Nc2ccc(Cl)cc2C(=O)c2ccccc2)CC1
    0.956, -0.87
CC12CCC(=O)C=C1CCC1C2CCC2(C)C(O)CCC12 (stereo not drawn)
    0.853, -1.59
CC1CCN(C(=O)CN2C(=O)CN=C(c3ccccc3)c3ccccc32)CC1
    1.13, 0.57
COc1ccc(-n2c(/C=C/c3ccccc3)nc3ccccc3c2=O)cc1
    1.11, 1.24
Cc1ccc(NC(=O)CN2C(=O)C(C)N=C(c3ccccc3)c3cc(Cl)ccc32)cc1 (stereo not drawn)
    0.889, -1.47
CCOC(=O)c1c(C)n(C2CCCCC2)c2cc(Br)c(O)cc12
    0.918, -1.3
CC(C)CCNC(=O)CN1C(=O)CN=C(c2ccccc2)c2cc(Cl)ccc21
    1.02, 0.359
Cc1ccc2c(c1)C1CN(C)CCC1N2C(=O)c1ccccc1 (stereo not drawn)
    1.01, 0.193
CC1N=C(c2ccccc2)c2ccccc2N(CC(=O)NCCC2=CCCCC2)C1=O (stereo not drawn)
    0.906, -1.74
COc1ccc(-n2nnnc2C2(N3CCOCC3)CCCCC2)cc1
    1.09, 3.67

# (listing goes on)
# Every second line gives: CBX7 inh, CBX7 inh z-score
O=C(CN1C(=O)CN=C(c2ccccc2)c2ccccc21)NCc1ccccc1
    1.03, 0.846
COc1ccc(C(=O)Nc2ccc(Cl)cc2C(=O)c2ccccc2Cl)c(OC)c1
    0.944, -1.2
O=C1CNC(c2ccccc2Cl)c2cc(Br)ccc2N1 (stereo not drawn)
    0.959, -0.449
COC(=O)CN1C(=O)CN=C(c2ccccc2)c2cc(Br)ccc21
    0.955, -0.484
O=C(c1ccccc1Cl)c1cc(Br)ccc1NC(=O)C1CCCCC1
    0.911, -0.384
Cc1ccc(NC(=O)CN2CC(c3ccccc3)CC2=O)cc1F (stereo not drawn)
    0.915, -1.97
CCOc1ccc(C(=O)Nc2ccc(Br)cc2C(=O)c2ccccc2)cc1
    0.936, -1.57
COc1ccccc1-n1c(/C=C/c2cccc(Br)c2)nc2ccccc2c1=O
    0.887, -0.196
O=C(c1ccccc1)c1cn(CCCOc2ccccc2)c2ccccc12
    0.793, -2.23
